D2 ag: agonists of human D2 dopamine receptor (beta-arrestin) | P14416 | AID 624465 | activation, % (test concentration not listed) | 0.084% of 360,000 active | DiscoveRx PathHunter D2 beta-arrestin, luminescence, 90 min; 100% = 57 uM dopamine signal; in the data active = activation above about 40%; inconclusive = about 15% to 40%; inactive = below about 15%; also: compound concentration not given in the record; the text of the record calls up to 30% inactive
Target sequence (P14416 whole entry, looked up): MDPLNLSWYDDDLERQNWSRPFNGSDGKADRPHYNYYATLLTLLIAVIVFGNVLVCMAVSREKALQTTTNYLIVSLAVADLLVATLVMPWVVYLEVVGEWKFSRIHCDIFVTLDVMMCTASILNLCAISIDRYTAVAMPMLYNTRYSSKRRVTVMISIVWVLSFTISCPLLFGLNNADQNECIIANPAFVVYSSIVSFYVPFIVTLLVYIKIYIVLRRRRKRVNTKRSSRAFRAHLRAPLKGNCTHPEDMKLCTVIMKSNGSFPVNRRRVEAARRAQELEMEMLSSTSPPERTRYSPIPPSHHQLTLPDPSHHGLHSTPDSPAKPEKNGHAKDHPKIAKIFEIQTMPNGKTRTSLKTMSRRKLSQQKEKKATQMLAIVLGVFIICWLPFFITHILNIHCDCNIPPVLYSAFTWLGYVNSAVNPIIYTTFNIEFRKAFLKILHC
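DiscoveRx PathHunter D2 beta-arrestin cells (2,100/well) attached overnight, then compound-stimulated 90 min at 37 C in HBSS/10 mM HEPES/0.1% Tween-20 buffer; beta-galactosidase complementation read by luminescence after 1 h at ambient temperature. Dopamine 57 uM final (EC100) as control.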
Menin-MLL FL inh: inhibitors of human menin-MLL interaction, wild-type MLL peptide | Fluorescence polarization, fluorescein-MLL peptide displacement from menin | FP activity change, % at 61.4 µM | 290,000 tested, under 10 active; inconclusive = falling polarisation curve, or a change in total fluorescence; inactive = total fluorescence flat and polarisation flat or rising; no compound was filed as active; the % refers to the polarisation; negative = inhibition;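 also: % of control where 0% means no effect; inhibitors lower the polarisation; unlabelled MLL peptide was the positive control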
ClpP mod: qHTS Assay for Activators of ClpP | purified B. subtilis ClpP, FRET peptide cleavage, 20 min | Potency, µM (series often up to 57.5 µM), for the others: at the highest dose activity change, negative = active | ATP-dependent Clp protease proteolytic subunit (Bacillus subtilis (strain 168)), P80244 | 1.9% of 340,000 active; active = well fitted falling curve with a large enough effect; inconclusive = small, poorly fitted or top-dose-only effect; inactive = no such curve, though single readings can be large or run the other way; also: potency is read from the fitted curve at half-maximal effect; the source files actives as falling curves though it sought activators and does not explain the sign; nearly all actives have a fitted effect of over 65% in size; many hits overshoot -100%
Target sequence (P80244 whole entry, looked up): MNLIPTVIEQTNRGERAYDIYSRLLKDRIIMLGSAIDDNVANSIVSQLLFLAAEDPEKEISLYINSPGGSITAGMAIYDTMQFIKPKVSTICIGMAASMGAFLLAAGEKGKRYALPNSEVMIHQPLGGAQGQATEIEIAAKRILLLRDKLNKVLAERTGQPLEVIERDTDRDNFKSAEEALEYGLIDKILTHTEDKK
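FRET quenching reversal measured ClpP activation: 10 microg/mL B. subtilis ClpP at pH 8 with the FRET-FV decapeptide, read at 430 nm after 320 nm excitation. The 20-min minus 0-min signal was scaled between DMSO/no-enzyme wells and ADEP (5.8 microM final).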
gsp agonist: activates gsp, the McCune-Albright syndrome mutation; gsp mutant cells, cAMP HTRF, 30 min; control for the full effect not named in the record; 0.13% of 340,000 active; Potency, µM (top dose mostly 76.9 µM), without a hit: at the highest dose activation (cAMP increase), actives largely listed as activators; active = well fitted activation curve with a large enough effect; inconclusive = small, poorly fitted or top-dose-only effect, or another doubt; inactive = no such curve, though single readings can be large or run the other way; cell line not stated here;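 also: phosphodiesterase inhibitor Ro 20-1724 added with compounds to block cAMP breakdown; potency is read from the fitted curve at half-maximal effect; nearly all actives have a fitted effect of over 60% in size; about a fifth of the inactives were tested at one dose only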
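Cells in DMEM/10% FBS with G418 were pretreated with compounds in DMSO plus […] (300 uM stock) for 30 min at 37C. cAMP was measured by HTRF (cAMP-d2 plus anti-cAMP antibody-K) after 30 min at room temperature.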
PINK1 expr mod: changes PINK1 expression; Potency, µM (doses to about 76.6 µM), for inactives: top-dose activation (PINK1 increase), hits mostly activators; PINK1 immunofluorescence, high-content cytometry, 24 h; 0.2% of 410,000 active; AID 624263; active = well fitted activation curve with a large enough effect; inconclusive = small, poorly fitted or top-dose-only effect; inactive = flat fitted curve, though single readings scatter; cell line not stated here;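 also: potency is read from the fitted curve at half-maximal effect; % of control where 0% means no effect; nearly all actives have a fitted effect of over 65% in size; a mitochondrial uncoupler was the plate control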
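PINK1 protein level read as immunofluorescence by microplate cytometer in a fixed, stained stable cell line after 24 h exposure to five compound concentrations, with CCCP as control.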
gsp antag: antagonists of gsp mutant (McCune-Albright syndrome) | 0.4% of 340,000 active | Potency, µM (doses to about 76.9 µM), inactives show at the highest dose activity change, negative = inhibition, actives largely listed as inhibitors | gsp-mutant cells, cAMP HTRF, 30 min; control for the full effect not named in the record; active = falling curve of any shape with a large fitted effect; inconclusive = falling curve, mostly with a smaller effect; inactive = flat or rising curve; cell line not stated here;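 also: intracellular cAMP measured with PDE inhibitor Ro 20-1724 present during compound exposure; potency is read from the fitted curve at half-maximal effect; % is scaled to controls: 0 for no effect and ±100 for the full control effect; nearly all actives have a fitted effect of over 65% in size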
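Cells, 2000/well, grown 16–24 h in DMEM 10% FBS with 0.5 mg/ml G418, then compounds plus […] (300 uM addition stock), 30 min at 37C. cAMP read by HTRF (cAMP-d2 and anti-cAMP antibody-K in lysis buffer) after 30 min RT.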
Sfp PPTase inh: inhibitors of Bacillus subtilis Sfp phosphopantetheinyl transferase; Potency, µM, for inactives: max response, negative = inhibition, hits mostly inhibitors; AID 1490; 3.5% of 310,000 active; Biochemical Sfp PPTase activity, qHTS; Q9F4F7; active = well fitted inhibition curve with a large enough effect; inconclusive = small, poorly fitted or top-dose-only effect, or another doubt; inactive = no such curve, though single readings can be large or run the other way;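 also: the enzyme is Sfp with the accession as filed and its product quenches rhodamine fluorescence; potency is read from the fitted curve at half-maximal effect; 0% = enzyme reaction without inhibitor and -100% = no enzyme wells; top concentration of the series not given in the record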
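Step 1, compound plus 15 nM Sfp-PPTase, 15 min, room temperature. Step 2, add rhodamine-CoA (5 uM) and BHQ-2-YbbR (12.5 uM). Step 3, read 525/598 nm fluorescence at 0 and 30 min.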
* = called active by the depositor; ? = inconclusive; . = not tested or not shown; & = joins results of further samples; [ ] = dose if it differs, or a comment. An unsorted share of the library; any-hit rate near 5.1%.

SMILES	D2 ag	Menin-MLL FL inh	ClpP mod	gsp agonist	PINK1 expr mod	gsp antag	Sfp PPTase inh
CSc1ccccc1NC(=O)Cn1nc([N+](=O)[O-])cc1C	3.8	-1.8	.	-59.3%[inhibitor]	-0.2%	8.7%	56.2µM*
COc1cc(SC)ccc1C(=O)N(Cc1ccccc1)c1ccccc1	-1.9	.	1.6%	15.2%	18.7%	-17.2%	-0.1%
Nc1c(Nc2ccccc2)c2ccccc2oc1=O	-7.1	2.2	0.5%	5.2%	-3.8%	-22.7%	-5.8%
O=S(=O)(c1ccccc1)N1CCC[C@@]2(CCN(c3ccncc3)C2)C1	.	0.4	.	.	0.5%	.	19.3%
CCc1ccc(NS(=O)(=O)c2cccc3nsnc23)cc1	-3.1	2.6	.	?	4.1%	-4.9%	9.9%
Cc1cc(NC(=O)COC(=O)C(Nc2ccc(C(F)(F)F)cc2Cl)C(C)C)no1 (centres undefined)	-3.0	5.5	1.3%	27.8%	21.4%	-36.9%	30.3%
CCCCc1c(C)c2ccc(OCC(C)=O)cc2oc1=O	-0.1	6.4	3.98µM*	-32.9%	-1.6%	-1.7%	-0.9%
COC(=O)c1cncc(O)c1	-4.7	6.2	-0.3%	2.2%	0.3%	0.8%	13.6%
CCSc1ncc(Cl)c(C(=O)Nc2ccccc2)n1	3.1	2.1	1.7%	-5.0%	3.1%	-18.1%	-3.0%
Cn1c(=O)c(C(=O)CN2CCN(Cc3ccc4c(c3)OCO4)CC2)c(N)n(Cc2ccccc2)c1=O	-5.2	1.1	0.2%	-2.2%	-0.6%	-2.0%	23.2%
Cc1ccsc1C(=O)OCC(=O)N(C)c1c(N)n(Cc2ccccc2)c(=O)[nH]c1=O	-4.6	.	1.1%	-50.1%[inhibitor]	0.0%	9.8%	.
COc1ccc(CCNc2ncnc3sccc23)cc1OC	0.9	4.2	0.4%	-3.7%[15.4 µM]	2.4%	-29.8%	12.5%
OCCN1CCN(CC(O)COc2ccc3c(c2)OCO3)CC1 (centres undefined)	-2.5	5.7	1.1%	0.4%	-4.6%	11.2%	4.8%
COc1cccc(CNC(=O)C2CC(=O)N(C3CCCCCCC3)C2)c1 (centres undefined)	-2.4	1.2	0.0%	?	0.7%	2.6%	9.6%
Cc1cccc(NC(=S)N(C)Cc2cn(C)c3ccccc23)c1	-2.0	4.6	0.2%	19.9%	4.0%	-11.0%	-8.8%
c1ccc(Oc2cc(-c3ccccc3)ncn2)cc1	-4.6	3.9	-3.5%	-20.3%	4.4%	13.4%[15.4 µM]	19.2%
Cc1ccc(S(=O)(=O)NCCS(=O)(=O)N2CCN(c3ccc(F)cc3)CC2)cc1	0.3	.	-0.9%	-15.9%	2.0%	-7.3%	.
CC(=NCc1ccccc1)c1ccc(O)cc1O	-5.5	.	3.5%	11.3%	0.5%	.	.
N#CCSc1nnc(-c2ccccc2)c(-c2ccccc2)n1	-3.5	1.4	-2.7%	-21.7%	-0.7%	-3.9%	3.8%
COCCNC(=O)/C(C#N)=C/C(C)=C/c1ccccc1	2.6	6.1	0.1%	-12.4%	2.9%	1.9%	9.1%
Cc1cc(C)cc(N2C(=O)C3CCCN3C2=S)c1 (centres undefined)	-1.3	-0.2	12.4%	5.7%[15.4 µM]	?	-8.4%	-0.2%
COc1ccc(CCNC(=O)CSc2nnnn2-c2ccccc2OC)cc1OC	3.8	-0.5	-2.1%	-0.9%	-0.8%	0.6%	5.8%
COCCSc1nc2c(c(=O)[nH]c(=O)n2C)n1CCCc1ccccc1	-3.8	-1.0	-2.6%	?	0.7%	3.4%	?
CCNc1nc(NC(C)C)nc(N(C#N)CCOc2ccccc2)n1	-1.0	3.5	0.0%	9.6%	1.2%	-14.8%	?
Cc1ccc(C2NC(c3ccc(C)cc3)C(C)C(=O)C2C)cc1 (centres undefined)	-4.8	5.5	-3.1%	-9.3%	4.9%	-9.8%	-3.1%
COC(=O)c1[nH]c(C)c(/C(O)=C2\C(=O)C(=O)N(CCCN3CCOCC3)C2c2ccccn2)c1C (centres undefined)	-0.8	?	-0.6%	0.8%	-1.5%	5.6%	50.1µM*
Cc1ccc(C)c(S(=O)(=O)N2CCN(C(=O)CCc3nc4ccccc4c(=O)[nH]3)CC2)c1	-4.5	.	-0.6%	8.5%[15.4 µM]	1.2%	-21.0%	.
C[C@H]1CN([C@@H](C)CO)C(=O)c2cc(Br)cnc2O[C@H]1CN(C)C(=O)C1CCC1	-1.9	.	-1.5%	-44.2%[inhibitor]	-0.3%	.	.
CCOC(=O)Cn1nc(C)c(NC(=O)COc2cccc(Cl)c2)c1C	1.7	-3.3	.	-12.6%[15.4 µM]	-0.8%	4.4%	19.6%
CN(C(=O)c1cccc(NC(=O)Cc2ccc(NC(=O)C3CCN(C(=O)C4CCCCC4)CC3)cc2)c1)C1CCC1	2.8	.	0.2%	.	8.3%	-3.6%	.
Cc1cc(NC(=O)COc2ccccc2)ccc1Cl	2.1	-2.6	-1.6%	-3.2%	-0.8%	1.2%	9.0%
O=C(c1cccs1)N(Cc1ccc(Cl)cc1)C1CCS(=O)(=O)C1 (centres undefined)	-6.2	-1.3	1.4%	-28.0%	-0.4%	11.2%	9.0%
O=S(=O)(NCc1ccccn1)c1ccc2ccccc2c1	-4.0	0.9	.	-31.7%[inhibitor]	-1.4%	2.4%	13.3%
Cc1ccc(CC(=O)N2CCN(c3ccccn3)CC2)cc1	-3.3	-1.7	22.4µM*	-4.7%	-0.7%	-5.2%	10.3%
COc1cccc(C(=O)NNC(=O)c2ccccc2Br)c1	-2.5	5.9	-1.8%	-27.3%	2.3%[38.3 µM]	9.8%	21.5%
Cc1occc1C(=O)N/N=C/C1=C(N2CCOCC2)C(=C/c2ccc(Cl)cc2Cl)/CC1	-0.4	.	?	?	?	-3.5%	.
CN(Cc1ccccc1)C(=O)C1CCN(S(=O)(=O)c2cc([N+](=O)[O-])ccc2Cl)CC1	?	6.0	-2.0%	1.5%	-0.6%	-14.2%	6.5%
O=C(Nc1ccc2c(c1)OCO2)c1csc([C@@H]2O[C@H](CO)[C@H](O)[C@H](O)[C@H]2O)n1	-8.5	.	-1.2%	.	1.4%	.	.
O=C(CSc1n[nH]c(=O)n1-c1cccnc1)N1CCOCC1	-22.8	2.0	.	-1.8%[15.4 µM]	0.9%	4.3%	5.4%
O=C(CN1CCC(C(=O)c2cccc(Cl)c2)CC1)Nc1cccc(C(=O)O)c1	1.5	-4.1	.	-6.7%[15.4 µM]	1.8%	4.8%	12.2%
COc1ccc(S(=O)(=O)N2CCOC2CNC(=O)C(=O)NCc2ccccc2OC)cc1 (centres undefined)	-0.7	6.0	-28.0%	0.0%	-3.4%	-6.3%	7.1%
Cc1cccc(CN2CCN(Cc3cnn(-c4ccccc4F)c3)CC2CCO)n1 (centres undefined)	-5.0	6.8	-5.4%	0.4%	0.0%	-5.2%	2.6%
COc1ccc(OC)c(NC(=O)c2cc(-c3cc(F)ccc3OCC3CCCO3)n[nH]2)c1 (centres undefined)	8.5	.	4.0%	.	2.3%	.	.
CN(Cc1cccc(F)c1)CC(O)COCc1ccccc1Cl (centres undefined)	2.5	2.7	.	8.6%	0.2%	11.2µM*	-10.2%
CC1CCCCN1C(=O)CN1C(=O)c2ccccc2S1(=O)=O (centres undefined)	3.6	.	3.7%	21.2%	-2.4%	12.3%	.
Cc1noc(C)c1COc1ccc(C(=O)OCc2nnc(-c3ccc(Cl)cc3)o2)cc1	1.1	0.5	-2.3%	-8.5%	-0.7%	?	?
COc1cccc(NC(=O)N(CCCN2CCOCC2)C(C)c2cc3cccc(OC)c3o2)c1 (centres undefined)	-2.9	0.9	-0.8%	-17.6%	1.1%	-3.8%	16.6%
CN(CC(=O)NCc1ccccc1)Cc1cccc(F)c1	-4.3	-0.1	0.2%	-3.7%[15.4 µM]	-0.3%	12.0%	?
COc1ccc(N2CCC(CNC(=S)Nc3c(C)cccc3C)C2)cc1 (centres undefined)	-2.5	3.7	.	-1.6%[15.4 µM]	3.3%	-9.9%	-24.3%
CC(C)=CCc1c2c(c3occ(-c4ccc(O)cc4)c(=O)c3c1O)C=CC(C)(C)O2	-2.7	-1.6&-3.2	2.0%	.	-0.6%	-1.5%	0.0%&23.4%

(list continues)
SMILES	D2 ag	Menin-MLL FL inh	ClpP mod	gsp agonist	PINK1 expr mod	gsp antag	Sfp PPTase inh
CCC(C)NC(=O)CSc1nnc(-c2ccncc2)n1-c1ccc(OC)cc1 (centres undefined)	-0.9	5.7	-0.4%	3.1%	0.6%	-11.8%	16.7%
CCOC(=O)c1cccc(NC(=O)CS(=O)(=O)Cc2nc(-c3cccc(OC)c3)oc2C)c1	-3.1	3.8	-1.4%	-3.2%	-1.6%[38.3 µM]	-16.4%	-5.0%
CCOc1ccc(CC(=O)Nc2ccc(-c3ccc4nnc(C)n4n3)cc2)cc1	3.2	0.2	.	-24.4%	9.1%	-17.7%	-13.9%
CN(C)C(=O)c1cccc(-c2cnc3c(NC=O)cc(-c4ccc(F)cc4)cn23)c1	7.5	.	1.2%	.	0.2%	.	.
COCCC(=O)N1CCC(Oc2ccc(C(=O)N3CCCC(CCCO)C3)cc2)CC1 (centres undefined)	-1.1	.	0.6%	-3.8%[15.4 µM]	2.9%	-4.0%	6.3%
CCCCOc1ccc(C(=O)NCC(=O)OCC(=O)c2c(N)n(C)c(=O)n(C)c2=O)cc1	-3.2	.	-0.6%	2.2%[15.4 µM]	1.6%	-1.6%	.
COc1ccc(C(=O)C(/C=N/O)=N/Nc2ccc(F)cc2)cc1	-5.1	1.4	.	0.0%[15.4 µM]	7.3%	-12.0%	-2.2%
C(=C\c1ccccc1)/CN1CCN(C(c2cc3ccccc3o2)c2nnnn2C2CCCCC2)CC1 (centres undefined)	-3.0	.	-2.9%	.	6.7%	.	.
CC1=C(C(=O)N(C(C)C)C(C)C)CC(CC(=O)NCc2cccs2)C(=O)N1Cc1ccccc1 (centres undefined)	-0.1	.	-4.0%	-170.4%[inhibitor]	-2.1%	.	.
C/C(=N\NC(=S)Nc1cccc(C)c1)c1ccccc1	-7.8	5.5	1.0%	0.2%	3.3%	?	-2.2%
CCCCC(=O)N/N=C(\C)CC(=O)Nc1cc(Cl)ccc1OC	-3.8	8.2	-1.6%	-5.5%	-0.6%	-12.4%	3.5%
O=C(Cc1ccc(-n2cccc2)cc1)N1CCc2ccccc21	0.0	20.8	-2.4%	11.2%	2.4%	-1.4%	10.5%

From PubChem
